Source: PubChem
Cruzain Triton: cruzain (T. cruzi) inhibition with detergent | Potency, µM, inactives show max response, negative = inhibition, hits mostly inhibitors | purified cruzain, Z-FR-AMC fluorescence, 0.01% Triton | AID 1478 | 200,000 compounds, 0.43% hits | P25779;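 note: plate controls were neutral wells for no effect and buffer without enzyme for full effect; nearly all actives have a fitted effect of over 40% in size; top concentration of the series not given in the record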
Target sequence (P25779 123-467 limits assumed): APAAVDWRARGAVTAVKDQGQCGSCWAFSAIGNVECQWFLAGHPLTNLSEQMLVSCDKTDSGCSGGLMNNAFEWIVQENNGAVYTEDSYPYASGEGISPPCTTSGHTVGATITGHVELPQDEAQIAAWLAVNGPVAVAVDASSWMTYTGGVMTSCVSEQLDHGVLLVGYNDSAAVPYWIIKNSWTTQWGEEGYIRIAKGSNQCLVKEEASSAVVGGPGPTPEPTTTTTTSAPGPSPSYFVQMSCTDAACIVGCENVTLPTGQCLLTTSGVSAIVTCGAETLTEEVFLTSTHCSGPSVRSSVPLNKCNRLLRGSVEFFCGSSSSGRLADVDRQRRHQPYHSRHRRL
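Cruzain (1.5 nM) preincubated 15 min at RT with compound in 100 mM sodium acetate pH 5.5, 5 mM DTT, 0.01% Triton X-100. Reaction started with 2 uM Z-FR-AMC; AMC fluorescence (ex 360/em 450 nm) change over 60 s gave rate.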
SARS PLpro yeast: blocks SARS-CoV papain-like protease in a yeast assay; 330,000 compounds, 0.19% hits; Potency, µM (doses to about 32.9 µM), for the others: at the highest dose activity, positive = growth rescue; AID 485353; S. cerevisiae expressing SARS-CoV PLpro, growth rescue; control for the full effect not named in the record; active means well fitted rising curve with a large enough effect; inconclusive means small, poorly fitted or top-dose-only effect; inactive means no such curve, though single readings can be large or run the other way; note: 0% is about no effect; nearly all actives have a fitted effect of over 55% in size; growth read by luminescence after 48 h
Cruzain inh noDet: cruzain (T. cruzi) inhibition without detergent; P25779; purified cruzain, Z-FR-AMC fluorescence, no detergent; Potency, µM, without a hit: max response, negative = inhibition, most hits filed as inhibitors; 200,000 compounds, 2.3% hits; AID 1476;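 note: plate controls were enzyme without inhibitor for no effect and buffer without enzyme for full effect; nearly all actives have a fitted effect of over 40% in size; top concentration of the series not given in the record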
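Detergent-free condition (0.00005% Triton X-100) in acetate buffer pH 5.5 with DTT. 1.5 nM enzyme and compound were pre-mixed 15 min, then 2 uM Z-FR-AMC substrate added; reaction progress from fluorescence change between first and third reads (60 s).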
2A StopGo: lowers the luciferase signal of an FMDV 2A StopGo reporter | human cells with a luciferase reporter of 2A StopGo recoding; control for the full effect not named in the record | Potency, µM (titrated, usually from 57.9 µM), for the others: at the top dose signal change, negative = less light | 410,000 compounds, 1.2% hits; active = well fitted falling curve with a large enough effect; inconclusive = small, poorly fitted or top-dose-only effect; inactive = no such curve, though single readings can be large or run the other way; tested in HEK293T cells; note: % is set by controls: 0 for no effect and ±100 for the full control effect; nearly all actives have a fitted effect of over 45% in size; luciferase light after 4 h
RE007 growth inh: less growth of the S. pombe RE007 Vpr strain. S. pombe RE007 Vpr strain, BacTiter-Glo ATP luminescence, 24 h; control for the full effect not named in the record. Potency, µM (doses to about 92.2 µM), for the others: at the highest dose activity change, negative = less growth. 360,000 compounds, 0.21% hits. AID 651644; active = well fitted falling curve with a large enough effect; inconclusive = small, poorly fitted or top-dose-only effect; inactive = no such curve, though single readings can be large or run the other way;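 note: % is set by controls: 0 for no effect and ±100 for the full control effect; nearly all actives have a fitted effect of over 50% in size; the assay follows cell death caused by Vpr and the record does not say whether a fall means rescue or toxicity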
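Fission yeast RE007 carrying one integrated HIV-1 vpr copy, seeded at OD 0.01 in PMG+AL medium with 23 nL pinned compound. Grown 24 h at 30 degrees; viability read by BacTiter-Glo luminescence after 5 min.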
Lassa entry inh: Lassa virus entry inhibition; Potency, µM (highest dose often 37.9 µM), without a hit: at the top dose activity change, negative = inhibition, usual class: inhibitors; 300,000 compounds, 1.2% hits; Lassa virus pseudotype entry inhibition, cell reporter; control for the full effect not named in the record; active means well fitted inhibition curve with a large enough effect; inconclusive means small, poorly fitted or top-dose-only effect, or effect the other way; inactive means flat fitted curve, though single readings scatter; tested in HEK293 cells; note: % is set by controls: 0 for no effect and ±100 for the full control effect; nearly all actives have a fitted effect of over 50% in size; luciferase read-out
NS1 function inh: blocks influenza NS1 protein function | S. cerevisiae slowed by influenza A NS1, growth recovery by OD600 | Potency, µM (titrated, usually from 46.1 µM), inactives show at the top dose activity, positive = more growth | 270,000 compounds, 0.4% hits | AID 2326; active means well fitted rising curve with a large enough effect; inconclusive means small, poorly fitted or top-dose-only effect; inactive means no such curve, though single readings can be large or run the other way; note: nearly all actives have a fitted effect of over 50% in size
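Growth recovery, yeast-based: influenza A NS1 expressed in S. cerevisiae causes slow growth, and suppressors are detected by OD600. The parent strain without NS1 is used as positive control.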
MARV entry inh: inhibitors of Marburg virus binding or cell entry; Potency, µM (titrated, usually from 37.8 µM), for the others: top-dose activity change, negative = inhibition, most hits filed as inhibitors; AID 540276; 300,000 compounds, 1.8% hits; Marburg virus pseudotyped entry inhibition, cell reporter; control for the full effect not named in the record; about a third of the inactives were read at about 46 µM; active = well fitted inhibition curve with a large enough effect; inconclusive = small, poorly fitted or top-dose-only effect, or effect the other way; inactive = flat fitted curve, though single readings scatter; tested in HEK293 cells; about a fifth of its hits are not listed in these tables; note: % is set by controls: 0 for no effect and ±100 for the full control effect; luciferase read-out
The depositor's hits bear a star; ? = inconclusive; · = not tested or not shown; [ ] = dose if it differs, or a comment. Unless noted, calls come from the whole dose curve; as a rule, active = well fitted curve in the direction sought with a large enough effect; inconclusive = small, poorly fitted or top-dose-only effect, or another doubt; inactive = no such curve, though single readings can be large; an effect the other way counts as inactive or inconclusive. Potency is the fitted concentration of half-maximal effect.

SMILES | Cruzain Triton | SARS PLpro yeast | Cruzain inh noDet | 2A StopGo | RE007 growth inh | Lassa entry inh | NS1 function inh | MARV entry inh
Cc1cccc(Nc2c(-c3ccsc3)nc3nc(C)cc(C)n23)c1 | -9.5% | · | 30% | -1% | · | ? | · | 2%[46.1 µM]
Cc1ccc(C(=O)Nc2ccccc2C(=O)N2CCCCCC2)cc1 | · | -1% | · | -5% | 2% | -1%[46.1 µM] | -11% | ?
COc1ccc(/C=N/NC(=O)c2ccncc2)cc1Cn1nc([N+](=O)[O-])c(Br)c1C | · | 1% | · | ? | -12% | -13% | · | ?
COc1ccc(N2C(=S)NC3CS(=O)(=O)CC32)cc1 (stereo not given) | · | 1% | · | 5% | 8% | 18% | 0% | -10%[46.1 µM]
CC(=O)N1CCN(C(=O)CSc2cc(C)c(Br)cc2C)CC1 | · | -2% | · | -3% | 6% | 4% | -10% | 3%
COCCn1c(Cc2ccccc2)nnc1SCC(=O)Nc1cc(C)on1 | -4.3% | 1% | 2% | -4% | 3% | -8% | -2% | -12%
CCc1nn2c(=O)cc(COC(=O)c3ccc(NC(=O)COc4ccccc4C)cc3)nc2s1 | 1.0% | · | -5% | 6% | · | 7%[46.1 µM] | · | ·
COc1cccc(NC(=O)CCNS(=O)(=O)c2cccc3nonc23)c1 | · | -2% | · | 21% | -3% | 0%[46.1 µM] | -20% | 10%[46.1 µM]
COc1ccc(-n2c(=O)c3c4c(sc3n(C)c2=O)CN(C(C)=O)CC4)cc1 | 0.4% | · | -7% | -1% | · | · | · | -14%[46.1 µM]
Cc1ccc(CSC2=Nc3ccccc3C3=NC(CC(=O)NCc4cccs4)C(=O)N23)c(C)c1 (stereo not given) | -3.6% | · | -1% | ? | · | ? | · | ·
Cc1csc2nc(COC(=O)c3ccccc3NC(=O)c3cccc(Br)c3)cc(=O)n12 | 1.8% | · | 5% | -18% | · | 0%[46.1 µM] | · | ·
CCCCOC(=O)C1=C(N)OC2=C(C(=O)CCC2)[C@]12C(=O)Nc1ccccc12 | 1.6% | 3% | 6% | -7% | 0% | 2% | -5% | 28%[46.1 µM]
O=C(c1cc2ccccc2cc1O)N1CCCC1 | · | -2% | · | 2% | -16% | · | 0% | ·
CCOc1cc(/C=C(\C#N)C(=O)Nc2cccc(C(=O)O)c2)cc(Br)c1OC(=O)c1ccc(OC)cc1 | · | -20% | · | -71% | -3% | ? | -1% | 5%[46.1 µM]
O=C(Nc1ccc2nc(SCC(=O)N3CCc4ccccc43)sc2c1)c1ccc(F)cc1 | -2.4% | · | 2% | 0% | · | -2%[46.1 µM] | · | 2%[46.1 µM]

Another view of 2 compounds above:
Cc1csc2nc(COC(=O)c3ccccc3NC(=O)c3cccc(Br)c3)cc(=O)n12
- Cruzain Triton: 1.8%
- SARS PLpro yeast: ·
- Cruzain inh noDet: 5%
- 2A StopGo: -18%
- RE007 growth inh: ·
- Lassa entry inh: 0%[46.1 µM]
- NS1 function inh: ·
- MARV entry inh: ·

CCCCOC(=O)C1=C(N)OC2=C(C(=O)CCC2)[C@]12C(=O)Nc1ccccc12
- Cruzain Triton: 1.6%
- SARS PLpro yeast: 3%
- Cruzain inh noDet: 6%
- 2A StopGo: -7%
- RE007 growth inh: 0%
- Lassa entry inh: 2%
- NS1 function inh: -5%
- MARV entry inh: 28%[46.1 µM]

(more compounds)
SMILES | Cruzain Triton | SARS PLpro yeast | Cruzain inh noDet | 2A StopGo | RE007 growth inh | Lassa entry inh | NS1 function inh | MARV entry inh
CCCNC(=O)CN(CCc1ccccc1)S(C)(=O)=O | -0.2% | 4% | -6% | 8% | 7% | 2% | 15% | 9%
Cc1ccc(NC(=O)COC(=O)c2ccc(OCc3c(C)noc3C)cc2)cc1S(=O)(=O)N1CCOCC1 | -3.3% | 8% | ? | 0% | 2% | -1% | 30% | ?
Cc1ccnc(NC(=O)C2CCN(S(=O)(=O)c3cccc(C(F)(F)F)c3)CC2)c1 | · | -1% | · | 1% | -8% | 2% | -2% | 1%
COC(=O)c1cc(-c2cccs2)nc2ccccc12 | · | -4% | · | -13% | -5% | 27% | 1% | 25%
CCOc1ccccc1NC(=O)CN1CCC(C(=O)c2ccc(OC)cc2)CC1 | · | -2% | · | 14% | -7% | -2%[46.1 µM] | -12% | ?
COc1cc(-c2nnc(SCC(=O)N(Cc3ccccc3)C(C)(C)C)o2)cc(OC)c1OC | -2.4% | -10% | ? | · | 12% | -20% | -2% | ?
Cc1[nH]c2ccccc2c1C(=O)COC(=O)C1CC(=O)N(Cc2ccco2)C1 (stereo not given) | 2.3% | -11% | 20% | -11% | 12% | 1% | ? | 1%
O=C(NCCSc1ccc(Br)cc1)c1ccccc1 | · | -3% | · | 5% | 2% | 1% | · | ?
COc1cc(C(=O)OC(C)CN2CCCCC2)cc(OC)c1OC (stereo not given) | · | 0% | · | 20% | -4% | · | 13% | ·
CCCn1c(SCC(=O)Nc2cccc(C(=O)OCC)c2)nnc1-c1ccoc1C | -0.4% | 0% | 28% | 0% | 5% | -23% | -19% | ?
O=C1OC2(O)C3C4C=CC(C4)C3C(=O)N2c2ccccc21 (stereo not given) | · | 0% | · | 2% | 18% | · | 5% | ·
O=C(COc1ccc(C(=O)O)cc1)Nc1cccc(C(F)(F)F)c1 | · | -1% | · | 0% | -23% | -4%[46.1 µM] | · | -17%[46.1 µM]
CCOc1ccc(-c2nnc(SCC(=O)NC(C)(C)C)nc2-c2ccc(OCC)c(OC)c2)cc1OC | · | -1% | · | 0% | -12% | 1%[46.1 µM] | 3% | ?
CCn1c(CNC(=O)Cc2ccc(OC)cc2)nnc1SCC(=O)Nc1nccs1 | 4.6% | 3% | -7% | · | 8% | 8% | 1% | -1%
Cc1cc(NC(=O)CCC(=O)N(Cc2ccco2)C(C(=O)NC2CCCC2)c2ccc(F)cc2)no1 (stereo not given) | · | 2% | · | -11% | -5% | 3% | 23% | ?
COc1ccc(NC(=O)CC2C(=O)N(c3ccc(C)cc3)C(=O)N2C2CCCCC2)cc1 (stereo not given) | -2.3% | · | -6% | -25% | · | -26%[46.1 µM] | · | -28%[46.1 µM]
COc1ccc(NC(=O)CN(C)C(=O)CSc2ccc3c(c2)OCCO3)cc1 | · | -3% | · | -8% | -11% | · | 0% | ·
Cc1cc(C)n(CCNc2nc3nonc3nc2N2CCCCC2)n1 | · | 0% | · | 3% | 1% | ? | -1% | 1%[46.1 µM]
CC1CCc2ccc(F)cc2N1S(=O)(=O)c1cccs1 (stereo not given) | -7.0% | -2% | -7% | -28% | 3% | ? | -5% | -20%
Cc1cc(C)cc(NC(=O)c2cc(S(=O)(=O)N3CCCC3)ccc2F)c1 | -0.2% | · | 2% | -9% | · | -23%[46.1 µM] | · | ·
c1ccc(-c2nc3cccnc3nc2-c2ccccc2)cc1 | · | · | · | -14% | 2% | 7% | · | -14%
COc1cc2c(cc1NC(=O)CN1CCN(S(=O)(=O)c3ccccc3F)CC1)oc1ccccc12 | 1.3% | 10% | 25µM* | -23% | ? | -22% | 5% | ?
CN(CC(=O)Nc1ccccc1F)Cc1cccs1 | · | -1% | · | 25% | 7% | 0% | 3% | ?
Cn1nnnc1SCc1ccccc1F | 4.2% | 2% | -9% | 30% | 7% | -1% | 5% | 0%
Cc1cccc(N2CCN(C(=O)c3ccccc3NC(=O)C3CCCCC3C(=O)O)CC2)c1 (stereo not given) | -3.1% | -5% | -2% | -23% | 18% | ? | 11% | ?
N#CCCn1cc(C=C2C(=O)NC(=O)NC2=O)c(-c2ccccc2)n1 | · | -2% | · | 2% | 10% | -15%[46.1 µM] | · | -18%[46.1 µM]
CC(=O)c1ccc(NC(=O)CNC2CCCCC2)cc1 | · | 0% | · | 6% | -14% | -1% | 4% | 27%
Cc1cc(C)c(S(=O)(=O)N(CC(=O)N2CCCC2)C2CCCCC2)c(C)c1 | 3.8% | · | 8% | ? | -1% | ? | -39% | -28%
CN(Cc1ccccc1)c1ccc(-c2nc(-c3ccncc3)no2)cc1[N+](=O)[O-] | -2.5% | · | 11% | 0% | · | 14%[46.1 µM] | · | 1%[46.1 µM]
CC(C)c1ccc(OC(=O)c2cc(-c3ccccc3)on2)cc1 | -2.6% | · | 11% | -8% | · | -4%[46.1 µM] | · | 13%[46.1 µM]
CCOC(=O)c1ccc(-n2ncc(C(=O)OCC)c2N)cc1 | 3.8% | -1% | -1% | 23% | -4% | -7% | ? | ?
CCN(CC)S(=O)(=O)c1ccc(Cl)c(C(=O)OC)c1 | 1.1% | -1% | 2% | -4% | -3% | 0% | 2% | 6%
CN(CC(=O)Nc1cc(S(=O)(=O)N2CCCC2)ccc1Cl)Cc1cccs1 | · | 0% | · | -4% | 8% | · | 2% | ·
O=C(c1csc(Nc2cccc3ccccc23)n1)N1CCCC1 | · | -1% | · | 15% | 1% | · | -36% | ·
COc1ccc(/C=N/n2cnn(Cc3ccccc3Cl)c2=S)cc1OC | · | -2% | · | -9% | 11% | ? | · | ?
N#C/C(C(=O)N1CCOCC1)=C1/SC(Cc2ccc(F)cc2)C(=O)N1c1ccccc1 (stereo not given) | -2.8% | 0% | 3% | 0% | -16% | 6% | -6% | 14%
O=C(Nc1ccccc1)C(Cc1ccccc1)NC(=O)C12CC3CC(CC(C3)C1)C2 (stereo not given) | -1.2% | -2% | 1% | 13% | 8% | 8% | 6% | 12%
O=C(CCc1nc2cccnc2n1Cc1cccs1)Nc1cccc(Cl)c1 | -7.4% | · | 0% | -17% | · | -10%[46.1 µM] | · | -6%[46.1 µM]
COc1ccc(Cl)cc1NC(=S)N(Cc1ccc(C(=O)O)cc1)Cc1ccc(OC)c(OC)c1 | · | -2% | · | -27% | -8% | 16%[46.1 µM] | · | 4%[46.1 µM]
Cc1ccccc1-n1c(SCC(=O)Nc2c(C)cccc2C)nc(O)cc1=O | · | 2% | · | 2% | 22% | · | 16% | -1%[46.1 µM]
CC(C)C(=O)NNC(=O)CN1CCN(c2nc(-c3ccccc3)cs2)CC1 | · | 1% | · | -9% | 2% | ? | 2% | ?
